# High-throughput results as filed in PubChem.
# VDR inhibitor – vitamin D3 receptor (human) inhibition. Potency, µM, for the others: max response, negative = inhibition, actives largely listed as inhibitors. 400,000 tested, 0.93% active. AID 504847. VDR-SRC2-3 peptide fluorescence polarization, 2 h. P11473; active = well fitted inhibition curve with a large enough effect; inconclusive = small, poorly fitted or top-dose-only effect, or another doubt; inactive = no such curve, though single readings can be large or run the other way; also: series mostly up to about 120 µM
# Target sequence (P11473 whole entry, looked up): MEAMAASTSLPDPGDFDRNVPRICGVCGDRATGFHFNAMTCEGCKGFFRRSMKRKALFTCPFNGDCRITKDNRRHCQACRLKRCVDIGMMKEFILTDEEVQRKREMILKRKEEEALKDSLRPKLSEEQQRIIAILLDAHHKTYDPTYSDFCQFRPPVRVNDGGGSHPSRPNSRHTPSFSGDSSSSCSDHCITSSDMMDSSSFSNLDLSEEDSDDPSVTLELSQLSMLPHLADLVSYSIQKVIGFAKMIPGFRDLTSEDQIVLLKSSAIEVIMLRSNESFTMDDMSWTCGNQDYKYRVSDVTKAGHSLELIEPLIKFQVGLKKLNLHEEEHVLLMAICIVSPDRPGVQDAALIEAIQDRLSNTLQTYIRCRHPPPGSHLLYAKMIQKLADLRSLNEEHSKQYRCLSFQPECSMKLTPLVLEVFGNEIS
#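 Inhibition of the VDR/SRC2-3 peptide interaction is quantified by fluorescence polarization. Compounds (23 nl, pintool) incubate with the reagents for 2 hours at ambient room temperature.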
# Active calls of the source: *; ? = inconclusive; [ ] = another dose, or the depositor's remark. % is scaled to controls: 0 for no effect and ±100 for the full control effect; potency is read from the fitted curve at half-maximal effect. An excerpt. The share of hits here may be higher or lower than overall.
# Start of the data: the first 6 compounds (preview)
VDR inhibitor	mol
6%	CCc1ccc(N(C(=O)CCC(=O)Nc2cc(C)on2)C(C(=O)NC(C)(C)C)c2ccc(OC)cc2)cc1 (stereo unspecified)
-7%	O=C(O)C(Cc1ccccc1[N+](=O)[O-])N1C(=O)c2ccccc2C1=O (stereo unspecified)
-5%	CCOC(=O)/C(N=Nc1sc(C(=O)OC)c(C)c1C(=O)OCC)=C(\O)CCl
6%	O=C(CCc1nnc(CCC2CCCCC2)o1)NCCn1cccn1
3%	CCOc1ccc(S(=O)(=O)Nc2cc(OC)c(OC)cc2C(=O)O)cc1
2%	COC(CNC(=O)c1cnn2c(C)c(Cc3ccccc3)c(C)nc12)OC

# This part in full, previewed entries included:
VDR inhibitor	mol
6%	CCc1ccc(N(C(=O)CCC(=O)Nc2cc(C)on2)C(C(=O)NC(C)(C)C)c2ccc(OC)cc2)cc1 (stereo unspecified)
-7%	O=C(O)C(Cc1ccccc1[N+](=O)[O-])N1C(=O)c2ccccc2C1=O (stereo unspecified)
-5%	CCOC(=O)/C(N=Nc1sc(C(=O)OC)c(C)c1C(=O)OCC)=C(\O)CCl
6%	O=C(CCc1nnc(CCC2CCCCC2)o1)NCCn1cccn1
3%	CCOc1ccc(S(=O)(=O)Nc2cc(OC)c(OC)cc2C(=O)O)cc1
2%	COC(CNC(=O)c1cnn2c(C)c(Cc3ccccc3)c(C)nc12)OC
-13%	O=C(CNC(=O)OCc1ccccc1)NC(Cc1cnc[nH]1)C(=O)O (stereo unspecified)
-10%	Cc1ccc(Nc2cc(C)nc(N3CCOCC3)n2)cc1
-9%	O=c1[nH]ncc(NCCCO)c1Cl
5%	COc1ccc(CCNC(=O)c2cc3c(C)nccc3[nH]c2=O)cc1OC
-15%	O=C(CCn1nnc2ccccc21)Nc1nnc(COc2ccccc2F)s1
9%	CC(C)(C)c1ccc(OCC(=O)N(Cc2ccco2)Cc2ccccc2F)cc1
-8%	Cc1cc(=O)oc2cc(OCC(=O)OCC(=O)NC(C)C)ccc12
16%	c1ccc2c(c1)nc1n2CCN1
-8%	CCC1(C)CN=C(c2ccccc2)NC1 (stereo unspecified)
11%	CC(=O)C1=C(O)C(=O)N(c2ccccn2)C1c1cccc(F)c1 (stereo unspecified)
7%	COc1ccc(CCNC(=O)c2ccc(N3CCCC3=O)cc2)cc1
6%	O=C(CN(c1cccc(Cl)c1)S(=O)(=O)c1ccc(Cl)cc1)NCc1ccccn1
-16%	COc1cccc(-c2cc(C(=O)NCC3CCCO3)c3ccccc3n2)c1 (stereo unspecified)
-14%	CC(C)C(=O)N1CCN(c2ccccc2NC(=O)c2ccc(Br)o2)CC1
-6%	O=S(=O)(NCCNS(=O)(=O)c1c(F)cccc1F)c1ccc2c(c1)OCCO2
11%	CCc1ccccc1N(C)C(=O)c1nn(C)c2c1CSc1ccccc1-2
28%	Cc1cc(-c2c(C)[nH]n(-c3ccc(Cl)cc3)c2=O)n(-c2ccccc2)n1
-14%	O=[N+]([O-])c1cccnc1Oc1cccnc1
9%	COC(=O)C1=C(CS(=O)(=O)c2ccccc2)NC(=O)NC1c1ccc(OC)c(OC)c1 (stereo unspecified)

# Reprinted from the part before: 2 compounds; new compounds follow.
VDR inhibitor	mol
-14%	O=[N+]([O-])c1cccnc1Oc1cccnc1
9%	COC(=O)C1=C(CS(=O)(=O)c2ccccc2)NC(=O)NC1c1ccc(OC)c(OC)c1 (stereo unspecified)
10%	COC(=O)c1ccc(NC(=O)c2ccc(F)cc2)o1
9%	CCOc1ccc2[nH]c(=O)c(CN(Cc3ccc(F)cc3)C(=O)c3ccco3)cc2c1
13%	Clc1ccc(Oc2nc(Oc3ccc(Cl)cc3)nc(N3CCOCC3)n2)cc1
4%	Cc1cc([C@](C)(N)C(=O)O)ccc1P(=O)(O)O
15%	COc1cccc(/C=C/C(=O)Oc2ccc(C(=O)c3ccc(F)cc3)cc2)c1
0%	O=C(NCCOc1ccccc1)C1CCCN1C(=O)c1cccs1 (stereo unspecified)
-12%	CCCc1nnc(NC(=O)CCC(=O)N2CCN(Cc3cc(F)ccc3OC)CC2)s1
-14%	Nc1c(-c2cccc(Cl)c2)cnn1-c1ccccc1
-13%	Nc1cccc(NP(=O)(c2ccccc2)c2ccccc2)c1
-14%	Cc1ccc(-n2nc(C)cc2NC(=O)CC#N)cc1
32%[activator]	CCOC(=O)c1c(CSc2ccccc2)n(C)c2cc(Br)c(OCC(O)CNC(CO)(CO)CO)cc12 (stereo unspecified)
-4%	CCOC(=O)CNC1CC(=O)N(c2ccc(Br)cc2)C1=O (stereo unspecified)
2%	CC/C(=N/Nc1ccccc1)c1cnnc(-c2ccccc2)n1
-16%	COc1cccc(-c2nnc(-c3ccc4ccccc4c3)o2)c1
-2%	Cn1c(=O)c2c(ncn2CC(=O)OCC(=O)NCc2ccccc2Cl)n(C)c1=O
-17%	S=C(NCc1ccc(Cl)c(Cl)c1)NCc1ccco1
-7%	CCOC(=O)c1ccc(N2C(=O)CC(N3CCC(O)(c4ccc(Br)cc4)CC3)C2=O)cc1 (stereo unspecified)
-17%	COc1ccc(-c2nc(C)sc2C)cc1
0%	COC(=O)c1cc(Nc2nc3ccccc3nc2NS(=O)(=O)c2ccc(C)cc2)ccc1Cl
28%	Cc1c(C(=O)NCCN2CCOC2=O)oc2c(F)cccc12
-16%	CCn1c(SCC(=O)Nc2ccc(S(N)(=O)=O)cc2)nnc1-c1cccc(OC)c1
79µM*	COCCN(C(=O)CSc1nc2ccccc2s1)c1c(N)n(Cc2ccccc2)c(=O)[nH]c1=O
3%	COc1ccc(CN2CCc3ccccc3C2)c(OC)c1
-1%	Cc1nc2cccnc2n1C1CCN(S(=O)(=O)c2ccc(Cl)cc2)CC1
2%	CC1CCCC(NC(=O)c2ccc3c(c2)OCO3)C1C (stereo unspecified)

# (list continues)
VDR inhibitor	mol
-12%	CC(C)c1ccc(NC(=O)CSc2ncc3c(n2)-c2ccccc2N(C)S3(=O)=O)cc1
-4%	Cc1cc(=O)oc2cc(NC(=O)C(C)Oc3ccc(F)cc3)ccc12 (stereo unspecified)
-12%	O=C(COc1ccccc1Cl)NC1CC1
?	COc1ccc(N2CCN(C(=O)c3ccccc3F)CC2)c([N+](=O)[O-])c1
-6%	CCCCc1c(O)nc(SCC(=O)c2ccccc2)n(-c2ccccc2C)c1=O
3%	CC1(C)C(=O)NCCN1C(=O)c1ccc2nc(Cc3ccccc3F)oc2c1
-17%	N#CCSc1nnc(Cc2ccc3c(c2)OCO3)o1
15%	CC(CCC(=O)O)(c1ccc(O)cc1)c1ccc(O)cc1
-13%	Cc1ccc(S(=O)(=O)N(C)C)cc1NC(=O)COC(=O)CC1CCCC1
-4%	Cc1ccc(N2CC(C(=O)Nc3nnc(SCCN4CCOCC4)s3)CC2=O)cc1C (stereo unspecified)
11%	OCc1ccccc1OCCCOc1cccc2cccnc12
3%	CCOC(=O)C1=C(C)N(C)C(=O)NC1c1cc2c(cc1[N+](=O)[O-])OCO2 (stereo unspecified)
9%	NS(=O)(=O)c1ccc(CCNC(=O)Cn2c(=O)c3cccn3c3ccc(F)cc32)cc1
-5%	O=C(COc1ccccc1-c1ccccc1)c1ccccc1
-8%	Cc1nc(SCC(=O)NCCc2ccccc2)nc(C)c1C
9%	CCOC(=O)/C(C#N)=C1\C=CN(C)C(C)=N1
-11%	CC(C)Nc1nc(-c2ccccn2)nc(-c2ccccc2)c1C#N
10%	CC(C)CC(=O)Nc1cc(-c2ccccc2F)nn1-c1ccccc1
-21%	Cc1ccc(Cn2nc(C)c(NC(=O)c3cc(-c4ccc(F)cc4)on3)c2C)cc1
-7%	CC(=O)c1cccc(N(CC(=O)Nc2ccc(S(=O)(=O)N3CCCC3)cc2)S(C)(=O)=O)c1
-11%	COc1ccc(-c2oc3ncn4nc(COc5ccccc5)nc4c3c2-c2ccc(OC)cc2)cc1
-1%	O=C(O)CN1CCNCCN(CC(=O)O)CCNCC1
11%	CCCn1cnc2cc(NCc3cccs3)ccc21
5%	CCCCC(C(=O)NC1CCCC1)N(C(=O)c1snc(C(N)=O)c1N)c1ccc(C)cc1 (stereo unspecified)
-6%	CCOC(=O)c1nc(C)n(-c2ccc([N+](=O)[O-])cc2)n1

# Going on with the list:
VDR inhibitor	mol
0%	COc1cccc(Nc2ncnc3onc(-c4ccccc4OC)c23)c1
4%	CCOc1ccc(S(=O)(=O)N(CC(=O)N2CCC(C(N)=O)CC2)c2ccc(F)cc2)cc1
-6%	CN(C)S(=O)(=O)N1CCC(n2nccc2NC(=O)CCCc2ccccc2)CC1
-6%	CC1CCN(C(=O)c2cc(-c3ccc4c(c3)OCO4)on2)CC1
-1%	CC(=O)c1cccc(NC(=O)c2cccc(S(=O)(=O)N(C)C)c2)c1
-15%	CCN(CC)S(=O)(=O)c1ccc(O)c(NC(=O)CN2CCc3ccccc3C2)c1
-7%	CC(C)c1ccc(S(=O)(=O)c2nnn3c2nc(N2CCCCC2)c2sccc23)cc1
5%	CC(C)CCNS(=O)(=O)c1ccc(N2CCCCS2(=O)=O)cc1
-7%	N#CCCn1cc(C(=O)Nc2ccccc2Br)c(-c2cccs2)n1
-17%	O=C(Nc1cccc(Cl)c1N1CCOCC1)c1cc([N+](=O)[O-])ccc1N1CCOCC1
8%	O=C(Nc1ccccc1-c1nnc(SCc2ccc(Cl)cc2)o1)c1ccccc1
8%	CC(=O)NCC(=O)OCC(=O)Nc1nc(-c2ccccc2)cs1
0%	O=C(C[C@H]1C/C=C\CC[C@H](Cc2ccc(F)cc2)C(=O)O[C@@H](c2ccccc2)CNC1=O)N[C@@H](CO)Cc1ccccc1
9%	CCC(=O)Nc1ccc(S(=O)(=O)NCc2ccc3c(c2)CCN3C(=O)c2ccc(C)cc2)cc1
-14%	COc1ccc(NC(=O)N2CCN(c3nc4ccccc4n3C(C)C)CC2)cc1
-1%	CCS(=O)(=O)c1nc(S(=O)(=O)c2ccc(C)cc2)c(NCCCN(C)C)s1
-10%	CCOC(CNC(=O)Cn1nc(C)c2ccccc21)OCC
4%	CCc1ccc(-n2cnc3cc(C(=O)NCC(OC)OC)ccc32)cc1
-7%	COc1ccc2c(=O)c(CC(=O)O)coc2c1
23%	CN1C(=S)SC(C)(C)C1(C)NO (stereo unspecified)
-11%	CCN(CC)CCCNCC(=O)Nc1ccc2c(c1)CCC2
-21%	Cn1c(=O)oc2cc(S(=O)(=O)Nc3cccc(F)c3)ccc21
17%	CC(C)(c1ccc(O)c([N+](=O)[O-])c1)c1ccc(O)c([N+](=O)[O-])c1
3%	CC(C)OC(=O)Cn1c(=O)oc2ccccc21
-11%	Cc1nn(C)cc1C(C(=O)NC1CCCCC1)N(C(=O)Cc1cccs1)c1ccc(Cl)cc1 (stereo unspecified)

# Grouped by structure: the compounds so far containing a tert-butyl group
VDR inhibitor	mol
6%	CCc1ccc(N(C(=O)CCC(=O)Nc2cc(C)on2)C(C(=O)NC(C)(C)C)c2ccc(OC)cc2)cc1 (stereo unspecified)
9%	CC(C)(C)c1ccc(OCC(=O)N(Cc2ccco2)Cc2ccccc2F)cc1

# (next part)
VDR inhibitor	mol
1%	CC(C)CNC(=S)N1CCC(C(=O)c2ccc3c(c2)OCCO3)CC1
-5%	COc1ccc2c(CNCc3cccs3)c(C(=O)O)n(Cc3ccc(C)cc3)c2c1
-4%	COc1cccc(Cn2c(=O)cnc3cnc(Nc4ccccc4)nc32)c1
-16%	COc1ccc(NC(=O)CN(C)CC(=O)Nc2ccc(Cl)cc2[N+](=O)[O-])cc1
-18%	Cc1csc(/N=C/c2ccc([N+](=O)[O-])cc2)n1
-14%	COc1cccc(NC(=O)CCC2CCN(Cc3nccs3)CC2)c1
-2%	NNC(=O)c1oc2nc(-c3ccccc3)cc(-c3ccccc3)c2c1N
-18%	CSCCC(NC(=O)COc1ccccc1)C(=O)N1CCCCC1 (stereo unspecified)
12%	Cc1cc(=O)[nH]c(N/N=C/c2cccc(Br)c2)n1
-27%	CC1CCc2nc(-c3cc4c(ccc5ccccc54)oc3=O)sc2C1 (stereo unspecified)
-4%	Cc1ccc(-n2ncc3c(NCCCn4ccnc4)ncnc32)cc1C
?	CCn1c(SCC(=O)N/N=C/C=C/c2ccccc2[N+](=O)[O-])nnc1-c1ccccc1
6%	CN(C)S(=O)(=O)c1ccc(N2CCCC2)c(C(=O)Nc2ccccc2)c1
4%	Nn1c(Cc2ccc(F)cc2)n[nH]c1=S
-7%	C=Cc1ccc(Cn2c(=O)n(-c3ccccc3C)c(=O)c3c4c(sc32)CN(C(C)=O)CC4)cc1
-3%	CCOC(=O)c1cnc(SC)nc1NCCOC
-2%	O=C(CCn1c(=S)oc2ccccc21)NCCC1=CCCCC1
-4%	NC(=O)c1ccc(OCC2CCCO2)cc1 (stereo unspecified)
1%	COc1ccc(Nc2nc(N)c([N+](=O)[O-])c(NC3CCCCC3)n2)cc1
17%	CCCNC(=O)CSc1c(CCC)cnc2c1c(=O)n(C)c(=O)n2C
24%	COc1ccc(C2=CSC3=NCCN23)cc1Br
11%	COc1ccc(CC(=O)OCC(=O)N2CCCc3ccccc32)cc1OC
1%	Cc1cc(C)n2nc(C(=O)OCCOc3ccc(F)cc3)nc2n1
-6%	CN(C)C(=O)c1ccc(-c2cc(NCc3cccs3)ncn2)cc1
3%	CCCn1cc(S(=O)(=O)CC(=O)NC2CCCCC2)c2ccccc21
11%	CCCC1C2C(=O)N(c3ccccc3)C(=O)C2ON1c1ccccc1 (stereo unspecified)
8%	COC(=O)c1ccc(NC(=O)CSc2nnc(COc3ccc4c(c3)CCCC4)o2)cc1

# Some of the entries above, reformatted.
CCOC(=O)c1cnc(SC)nc1NCCOC
  VDR inhibitor: -3%
O=C(CCn1c(=S)oc2ccccc21)NCCC1=CCCCC1
  VDR inhibitor: -2%
NC(=O)c1ccc(OCC2CCCO2)cc1 (stereo unspecified)
  VDR inhibitor: -4%
COc1ccc(Nc2nc(N)c([N+](=O)[O-])c(NC3CCCCC3)n2)cc1
  VDR inhibitor: 1%
